UCH37 inh: inhibitors of human UCH37 deubiquitinase, primary screen, biochemical, Ub-AMC cleavage, fluorescence. purified proteasome/UCH37. Ubiquitin carboxyl-terminal hydrolase isozyme L5 (Homo sapiens), Q9Y5K5. inhibition, % (test concentration not listed). AID 588478, 2011. actives 0.33% (n = 330,000);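 active = mean of two replicates above 20%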;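 note: 0% = compound-free wells with enzyme and 100% = wells lacking proteasome; stock transfer was 100 nL into about 20 µL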
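Assay system: Proteasome-bound UCH37. Buffer or medium: pH 7.4 Tris-HCl (50 mM) with ovalbumin, ATP-MgCl2, DTT. Incubation: 30 min preincubation with enzyme, 25 min cleavage at room temperature. Measured by: fluorescence, ex 355 nm, em 460 nm. Read-out basis: percent inhibition. Control set: wells without proteasome as full block, compound-free enzyme plus substrate as uninhibited.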
AF4-AF9 inh: inhibitors of AF4 peptide binding to AF9, primary screen, biochemical, AlphaScreen, biotin-AF4 peptide, FLAG-AF9, single point; Protein AF-9 (Homo sapiens), P42568; inhibition, % at 10 µM; actives 0.47% (n = 350,000);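 active = every replicate reaching a set inhibition limit, whatever the replicate mean, cut at about 25% in these data; inconclusive = mean inhibition reaches that limit but some replicates miss it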;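 note: 0% = plate neutral control median and 100% = total signal loss; the record names both 10 and 1 µM as test concentration; the first replicate is given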
Target sequence (P42568 whole entry, looked up): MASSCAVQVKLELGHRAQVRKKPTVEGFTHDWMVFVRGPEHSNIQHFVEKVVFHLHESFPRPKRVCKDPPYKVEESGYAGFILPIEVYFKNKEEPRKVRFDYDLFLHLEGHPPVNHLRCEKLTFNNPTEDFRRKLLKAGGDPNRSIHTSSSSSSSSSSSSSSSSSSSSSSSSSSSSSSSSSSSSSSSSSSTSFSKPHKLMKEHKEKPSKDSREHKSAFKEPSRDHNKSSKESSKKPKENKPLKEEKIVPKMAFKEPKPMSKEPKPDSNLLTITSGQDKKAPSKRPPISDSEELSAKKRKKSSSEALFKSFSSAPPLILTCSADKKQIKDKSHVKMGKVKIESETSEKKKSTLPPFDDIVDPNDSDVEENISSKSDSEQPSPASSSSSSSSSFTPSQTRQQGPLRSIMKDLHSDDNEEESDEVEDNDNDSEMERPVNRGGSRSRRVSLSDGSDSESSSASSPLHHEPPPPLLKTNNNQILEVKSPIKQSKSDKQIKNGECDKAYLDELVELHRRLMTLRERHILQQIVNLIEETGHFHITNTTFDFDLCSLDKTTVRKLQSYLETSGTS
HNF4A DNA FP: change in binding of human HNF4A to DNA, primary screen, biochemical, fluorescence polarization, FITC-DNA; activity change, % at 10 µM; actives 0.3% (n = 360,000); Hepatocyte nuclear factor 4-alpha (Homo sapiens), P41235; 1 h; in the data active = activity change above about 30%, passing the limit was not always enough;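 note: controls were the assay level and a saturating level of protein; the project sought stronger binding though the title names inhibitors; some compounds called inactive have numbers as strong as hits; positive values seem to mean higher polarization but the record does not say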
Vif A3G: inhibitors of Vif binding to APOBEC3G peptide, primary screen, biochemical, TR-FRET, GST-Vif 1-94, biotin-A3G peptide, dose response retest (AID 1117319); TR-FRET GST-Vif / biotin-A3G peptide binding; higher % means a stronger effect; test concentration not given here; strong numbers were not always called active; inhibition, %, or IC50 in µM where a hit was titrated; actives 0.57% (n = 260,000);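 active = above the screen mean plus three standard deviations and confirmed in dose response; inconclusive = results disagree or hit not tested in dose response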;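 note: Vif residues 1-94 fused to GST binding biotinylated APOBEC3G peptide 110-148; 0% = full assay without inhibitor and 100% = GST in place of GST-Vif; retest series ran down from 100 µM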
RanGTP-Impb inh: inhibitors of RanGTP-importin-beta interaction, primary screen, biochemical, FRET, CFP-Ran, YFP-importin-beta, homogeneous. Ran GTPase (GTP-bound) - importin-beta complex. cell-free CFP-Ran/YFP-importin-beta FRET ratio. inhibition, % (no concentration beside the values). actives 1.1% (n = 300,000);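 active = most replicates above 15%; inconclusive = exactly half above 15%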;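 note: 0% = DMSO wells and 100% = Ran loaded with GDP instead of GTP; wells of about 40 µL received 100 nL stock; the first replicate is given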
Ecoli growth: E. coli growth inhibition, primary screen, OD600; Escherichia coli growth, 23 h; hits give low values; AID 1053175, 2014; actives 0.21% (n = 330,000); OD600 absorbance (concentration not given with the values);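 active = OD600 absorbance below the run mean of sample wells minus 3.6 SD, in any replicate, cut at about 0.56 in these data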;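 note: stock transfer was 300 nL into about 60 µL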
FGF22 binding: binders of human FGF22 protein, primary screen, FGF22 synaptogenesis inhibitor project, biophysical, thermal shift, single point; recombinant FGF22 thermal shift, SYPRO orange fluorescence; percent of sucrose octasulfate shift, DMSO zero; Fibroblast growth factor 22 (Homo sapiens), Q9HCT0; AID 651658, 2012; calls only at 9.99 µM; actives 1.5% (n = 340,000);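 active = melting point raised past a set limit in the mean and every replicate; inconclusive = no clear call; three in four hits are not shown here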
Target sequence (Q9HCT0 whole entry, looked up): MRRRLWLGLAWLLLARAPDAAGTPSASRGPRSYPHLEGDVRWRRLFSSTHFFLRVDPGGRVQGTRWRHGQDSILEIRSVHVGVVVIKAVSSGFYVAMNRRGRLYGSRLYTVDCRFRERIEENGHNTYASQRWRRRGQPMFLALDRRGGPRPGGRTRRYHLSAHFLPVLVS
* marks the source's active call; other numbers are inactive results; i = inactive; ? = inconclusive; . = not tested or not shown; & = joins results of further samples.

mol	UCH37 inh	AF4-AF9 inh	HNF4A DNA FP	Vif A3G	RanGTP-Impb inh	Ecoli growth	FGF22 binding
O=C(COc1ccccc1)Nc1nnc(-c2ccc(Cl)cc2)o1	-1.6	-6.1	19.6	.	4.5	0.631	i
COc1ccccc1NC(=O)Cn1nc(C)n2cccc2c1=O	1.7	1.4	0.8	.	6.8	0.661	i
CCc1nnc(NC(=O)C(C)C)s1	3.2	.	1.4	?	6.0	0.71	.
COc1ccc(-c2cc(C(=O)N3CCN(c4ncccn4)CC3)c3ccccc3n2)cc1OC	-15.8	-3.6	0.3	-4.7%	.	0.672	i
CN(C(=O)c1ccc(NC(=O)Cc2ccc(NC(=O)C3CCN(S(=O)(=O)c4cccc([N+](=O)[O-])c4)CC3)cc2)cc1)C1CCCC1	1.1	-0.2	2.9	3.5%	.	0.678	i
C=CCN1C(=O)C2(C(C#N)=C(N)Oc3n[nH]c(CCC)c32)c2ccccc21 (stereo not given)	1.1	.	2.5	1.6%	7.4	0.707	.
Nc1cccc(Nc2ccccc2)c1	1.0	3.3	3.6	1.3%	?	0.594	i
COc1ccc(C(=O)Oc2c(CN3CCOCC3)cc(Cl)c3cccnc23)cc1OC	1.9	-10.0	.	.	3.3	0.71	i
CC(=O)Nc1ccc(C(=O)OCC(=O)NC2CCCCCC2)cc1	.	1.9	2.6	0.6%	.	.	i
CC1CCCC(NC(=O)CSC2CCCCC2)C1C (stereo not given)	0.9	-1.6	2.8	5.2%	-1.3	0.733	i
Cc1cccc2sc(NNC(=O)c3ccc(S(=O)(=O)N4CC(C)CC(C)C4)cc3)nc12 (stereo not given)	0.5	6.5	-1.0	>100µM*	5.0	0.704	i
COc1ccc(-n2c(C)cc(/C=C3/SC(=S)N(C)C3=O)c2C)cc1	5.0	4.6	51.5*	16.4%	22.8*	0.742	i
O=S(=O)(Nc1ccccn1)c1cnc(Cl)c(Br)c1	4.3	-8.5	1.2	11.2%	2.1	0.67	i
COc1cc(Cl)ccc1OC1(C)CCN(Cc2cccn2-c2nccs2)C1 (stereo not given)	.	11.8	-4.2	.	.	.	i
CC(=O)c1c(C)[nH]c(C(=O)NCCN2CCC(C)CC2)c1C	2.1	.	0.7	-3.7%	1.9	0.745	.
CCCn1c(=O)c2ccccc2n2c(SCc3c(C(=O)OCC)oc4ccccc34)nnc12	1.3	.	3.4	-5.1%&-1.3%	-2.2	0.668	.
Cc1cc(N2CCOCC2)ccc1/C=C1\NC(=O)N(Cc2ccccc2F)C1=O	-5.8	-0.4	12.2	6.5%	-2.2	0.711	i
C/C(=N\Nc1c(F)c(F)c(Br)c(F)c1F)c1ccncc1	.	-0.8	1.0	-4.9%	-3.0	.	i
CCOc1ccc(NC(=O)c2ccc(-c3csc(C)n3)cc2)cc1	-5.8	-1.5	-2.4	.	-1.3	0.674	i
COC(=O)CNC(=O)C1Cc2ccccc2CN1S(=O)(=O)c1ccc(F)cc1 (stereo not given)	-1.3	2.0	1.9	-3.1%	2.1	0.706	i
O=C(NCCCn1ccnc1)c1ccc(S(=O)(=O)N2CCCCCC2)cc1	1.6	.	0.8	3.4%	3.6	0.701	.
CCC1(c2ccccc2)CN(C)C1=O (stereo not given)	.	1.4	-3.4	3.2%	.	.	i
O=C(Nc1nccs1)c1ccc(-c2ccc(F)c(Cl)c2)o1	-12.4	1.2	-2.7	-6.9%	1.4	0.705	i
CCCS(=O)(=O)NC(=O)C1(C)CCCN(C(=O)c2ccc(OC)cc2OC)C1 (stereo not given)	.	-1.6	1.6	.	.	.	i
Cc1nn(C)cc1CN(C)Cc1ccc(OCC(O)CN2CCCCC2)cc1 (stereo not given)	0.0	2.7	-2.8	-7.2%	2.8	0.652	i
CCCCC(=O)OCc1nc(N)nc(Nc2ccccc2C)n1	-1.1	-8.6	8.0	.	?	0.688	i
CC1=CC2=NCC(O)CN2C=C1 (stereo not given)	-11.7	.	-2.8	1.6%	5.0	0.727	.
Cc1cc(=O)oc2cc(OCc3ccc(C(=O)OCC(=O)Nc4ccccc4OC(F)F)cc3)ccc12	-29.2	6.6	-1.8	.	3.7	0.732	i
COc1cc(C(C)=O)ccc1Oc1ncnc2c1cnn2-c1ccccc1	2.6	7.9	-0.4	28.3%	-0.3	0.733	i
COC(=O)C1=C(C)N(CCc2cc(OC)c(OC)c(OC)c2)C(=O)N[C@H]1c1ccc(Br)cc1	1.8	.	.	-5.1%	5.9	.	.
COC(=O)C1=C(N)Oc2cc(C)n(CCN3CCOCC3)c(=O)c2C1c1cccnc1 (stereo not given)	4.1	.	-1.5	-4.8%	0.5	0.691	.
O=C(C1CCCCC1)N1C[C@@H](O)[C@H](n2cc(C3CC3)nn2)C[C@@H]1c1ccc(Cl)cc1	.	0.7	0.1	4.4%	.	.	i
Cc1ccnc(NC(=O)c2ccc(NC(=O)c3ccco3)cc2)c1	1.7	.	1.7	-6.4%	0.9	0.764	.
O=S(=O)(NCc1cc(-c2ccccc2)no1)c1ccccc1	0.9	-1.4	-0.1	7.0%	-3.2	0.646	i
Cc1cn([C@H]2C[C@H](O)[C@@H](/C=C/C(=O)NCCc3cccs3)O2)c(=O)[nH]c1=O	.	-0.1	-2.3	.	.	.	i
Cn1cc(Br)c(C(=O)Nc2sc3c(c2C(N)=O)CCCC3)n1	-43.9	-1.3	-0.3	.	2.2	0.701	i
O=C(CN1C(=O)NC2(CCOc3ccccc32)C1=O)Nc1cccc(Cl)c1 (stereo not given)	0.8	2.7	0.9	0.1%	0.7	0.698	.
CCOc1ccccc1NC(=O)CN(c1nccs1)S(=O)(=O)c1ccc(N)cc1	-1.0	.	-0.7	-3.2%	6.3	0.693	.
O=C(NCCc1c[nH]c2ccccc12)c1ccc(-n2cnnn2)cc1	2.6	.	-2.7	9.3%	2.0	0.729	.
CCc1nnc(N2CCN(c3ncnc4c3oc3ccccc34)CC2)s1	5.1	.	2.9	-76.4%	?	0.683	.
CC(=O)Nc1ccc2nc(NC(=O)CS(=O)(=O)c3ccc(F)cc3)sc2c1	.	-4.8	-0.3	0.3%	.	.	i
O=C(COc1cccc(C(F)(F)F)c1)N1CCN(c2ccccc2O)CC1	2.0	2.4	2.4	-9.1%	-1.4	0.681	i
COc1ccc(S(=O)(=O)N2CCN(C(=O)[C@@H]3CCC(=O)N3C3OC(=O)c4ccccc43)CC2)cc1 (stereo not given in full)	1.0	.	-3.3	25.5%	1.8	0.699	.
C[C@@H]1CN([C@@H](C)CO)S(=O)(=O)c2ccc(Br)cc2O[C@H]1CN(C)C(=O)c1ccccc1F	.	-1.1&1.6	-5.5	.	.	.	i
O=C(NNS(=O)(=O)c1cc(Cl)c(Cl)cc1Cl)c1cccnc1	4.6	-1.4	6.7	.	1.6	0.67	i
CN(C)c1nc(OCCOC(=O)Nc2ccc(Cl)cc2Cl)nc(N(C)C)n1	-0.2	3.3	0.6	-1.4%	-2.0	0.656	i
CCOc1ccc(N2CC(=O)N/C2=N\c2nc(C)cc(C)n2)cc1	-0.2	.	-0.5	3.0%	-2.2	0.765	.
CCCn1c(=O)c2ccccc2n2c(SCc3cc(=O)oc4ccc5ccccc5c34)nnc12	-16.2	.	1.6	20.4%	-1.2	0.648	.
Cc1nc(SCn2nnc3ccccc3c2=O)nc(C)c1C	2.2	.	1.2	-0.1%	8.8	0.728	.
Nc1n[nH]c(CO)n1	2.7	-2.3	0.3	3.5%	-0.8	0.648	i
C=CCNc1nc2c(c(=O)[nH]c(=O)n2C)n1CCCCC	-2.9	.	1.7	-0.3%	0.2	0.768	.
COc1ccc2[nH]c(C)c(CN3CCC(C)CC3)c(=O)c2c1	-66.6	3.6	-2.5	0.6%	-4.0	0.681	.
Cc1cc(CNC(=O)c2cc(Br)ccc2Cl)nn1C	3.1	.	4.4	-0.6%	-1.9	0.657	.
COc1cc(NC(=O)Nc2ccc(Cl)c(Cl)c2)c(C(=O)O)cc1OC	-69.3	-15.6	-0.8	10.6%	4.2	0.673	i
O=C(COC(=O)/C=C/c1ccccc1)Nc1ccc2c(c1)OCCO2	-1.2	-1.5	-0.2	.	.	0.723	i
CCOc1cc(NC(=S)NCC2CCCO2)c(OCC)cc1NC(=O)c1ccc(OC)cc1 (stereo not given)	0.9	.	1.4	-4.6%	2.6	0.709	.
COc1cc(Cl)c(C)cc1NC(=O)c1ccccc1NC(=O)CN1CCOCC1	-3.5	0.7	-4.3	.	2.1	0.663	i
COc1ccccc1N1C(=O)c2ccc(C(=O)Nc3ccc(C(=O)O)cc3)cc2C1=O	3.2	0.1	2.0	-7.4%	1.4	0.696	i
Cc1sc2c(c1C)c(=O)n(-c1ccccc1)c1nnc(C)n21	1.9	.	0.4	0.2%	0.4	0.675	.
O=C(NC(=S)NCC1CCCO1)c1ccccc1Br (stereo not given)	2.2	.	0.1	11.6%	-0.9	0.728	.

(next part)
mol	UCH37 inh	AF4-AF9 inh	HNF4A DNA FP	Vif A3G	RanGTP-Impb inh	Ecoli growth	FGF22 binding
CC(C)C[C@@H](CO)NS(=O)(=O)c1cc(Cl)ccc1F	.	-1.5	-2.8	.	.	.	i
CC(C)C(=O)Nc1cc(C(F)(F)F)ccc1-n1ccnc1	2.2	0.1	3.4	1.2%	-0.5	0.686	i
COCCCNC(=S)N1CCCN(c2nc3cc(C)ccc3cc2C#N)CC1	-28.0	-2.5	1.6	23.6%	-8.0	0.703	i
CCOc1ccccc1NC(=O)CCNS(=O)(=O)c1ccc2[nH]c(=O)oc2c1	0.7	-1.2	-2.2	18.4%	-3.5	0.628	i
COc1cccc(C(=O)Nc2cc3c(cc2C(C)=O)OCCO3)c1	-37.6	3.3	1.7	.	-1.7	0.688	i
COc1ccc(Cc2nnc(N=Nc3c(O)[nH]c4ccc(Br)cc34)[nH]c2=O)cc1	0.5	-3.4	2.1	2.6%	-5.1	0.676	i
CCCSc1nc(NCc2ccco2)c2c3c(sc2n1)COC(C)(C)C3	-0.7	.	-3.1	?	0.0	0.627	.
CCCCn1nnnc1C1(C)CCC(=O)N1CCc1c[nH]c2ccccc12 (stereo not given)	.	3.6	-3.7	.	.	.	i
COc1ccc(NC(=S)N2CCCN(Cc3cc(C)ccc3C)C2)cc1	4.1	0.4	0.2	2.6%	-14.1	0.702	i
CNC(=O)COc1ncnc2scc(-c3ccc(F)cc3)c12	-1.2	-2.1	2.4	.	-1.7	0.721	i
Cc1ccc(C(=O)c2oc3ccccc3c2NC(=O)c2cc(-c3cc(C)ccc3O)n[nH]2)cc1	-12.9	6.2	-1.2	21.2%	6.8	0.721	i
CCC1SC(=NC(=O)c2ccc(Cl)c(Cl)c2)NC1=O (stereo not given)	3.3	.	1.6	?	1.9	0.653	.

Screening results: PubChem BioAssay, several laboratories

A portion of the library. The share of hits here may be higher or lower than overall.
